Assay outcomes as filed in PubChem.
Arbovirus anti – antivirals against arbovirus infection; arbovirus infection cell-based antiviral screen; inhibition, % at 10 µM; 200,000 tested, 0.37% active; AID 1251;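 active = inhibition from about 30%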;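 also: bluetongue infection of BSR cells; cell survival read as ATP light after 72 h; 0% = infected wells without compound and 100% = uninfected wells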
Mtb growth – M. tuberculosis H37Rv growth inhibitors, H37Rv strain (AID 1626). M. tuberculosis H37Rv growth inhibition; higher % means a stronger effect. inhibition, % at 10 µM; hits with a dose series show IC50 in µM. 220,000 tested, 0.95% active;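 active = confirmed in a dose series; inconclusive = inhibition above 80% but not taken into the dose series; inactive = below 80% or under 30% at every dose of the series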;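 also: bacteria incubated seven days before Alamar blue readout; 0% = bacteria only wells and 100% = bacteria with antibiotic wells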
RecA intein inh – Mtb RecA intein splicing inhibition. cell-free RecA intein splicing, fluorescence. inhibition, %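 (about 9 µM by stock and volumes)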. 290,000 tested, 0.75% active. AID 2221; in the data active = inhibition above about 30%; inconclusive = no clear call, values can overlap the other calls;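 also: 0% = vehicle wells and 100% = reference inhibitor control wells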
Target sequence (P9WHJ3 whole entry, looked up): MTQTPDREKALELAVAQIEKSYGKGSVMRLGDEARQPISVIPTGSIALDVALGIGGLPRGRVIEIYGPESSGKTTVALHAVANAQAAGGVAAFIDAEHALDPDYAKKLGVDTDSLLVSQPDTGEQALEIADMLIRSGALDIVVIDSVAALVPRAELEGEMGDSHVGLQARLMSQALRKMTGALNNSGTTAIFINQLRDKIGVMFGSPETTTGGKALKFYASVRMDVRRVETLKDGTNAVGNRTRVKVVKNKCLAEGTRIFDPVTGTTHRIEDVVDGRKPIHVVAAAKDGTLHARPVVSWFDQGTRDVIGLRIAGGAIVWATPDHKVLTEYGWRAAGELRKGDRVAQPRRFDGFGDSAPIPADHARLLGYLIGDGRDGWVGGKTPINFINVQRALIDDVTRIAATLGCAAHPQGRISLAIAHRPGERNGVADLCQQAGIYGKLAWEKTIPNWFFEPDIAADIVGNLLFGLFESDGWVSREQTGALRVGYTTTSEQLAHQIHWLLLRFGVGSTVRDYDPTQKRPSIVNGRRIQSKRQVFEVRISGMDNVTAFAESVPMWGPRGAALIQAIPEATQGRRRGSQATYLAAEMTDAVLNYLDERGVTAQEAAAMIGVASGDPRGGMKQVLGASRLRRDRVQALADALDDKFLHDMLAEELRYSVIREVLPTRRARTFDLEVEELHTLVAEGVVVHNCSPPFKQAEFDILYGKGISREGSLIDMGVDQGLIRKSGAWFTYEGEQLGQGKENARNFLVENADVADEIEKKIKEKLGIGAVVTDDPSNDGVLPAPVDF
Mtb betalactam – beta-lactam sensitization of Mtb H37Rv. M. tuberculosis H37Rv growth with meropenem, percent inhibition; hits of this screen are not shown here. inhibition, % at 25 µM. 330,000 tested, 0.27% active. AID 434955;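 active = about 74% or more and at least 40 points above the plate without the antibiotic, then above 30% in a dose series; inconclusive = first-round hits that could not be retested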;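 also: growth measured after seven days incubation then overnight dye step; 0% = bacteria only wells and 100% = bacteria with antibiotic; twin plates without the antibiotic show which effects depend on it; some results filed as inactive read as strong as hits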
YopH PTP inh – inhibitors of Yersinia enterocolitica YopH tyrosine phosphatase. 140,000 tested, 0.16% active. fluorescence Ex485/Em525. inhibition, %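 (about 10 µM by stock and volumes)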. AID 898;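 active = inhibition of 50% or more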;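 also: controls were vehicle for no effect and minimum signal wells for full effect; inactives centre near -20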
Arbovirus anti repeat – second read-out of Arbovirus anti, no call of its own (marks repeat the call); inhibition, %; measured here: 10K subset replicate screen; many hits read low in the repeat;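 first of two repeat runs on a subset; 0% = infected and 100% = uninfected wells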
* hit, by the source's call; ? = inconclusive; . = no result given; & = joins results of further samples.

SMILES | Arbovirus anti | Mtb growth | RecA intein inh | Mtb betalactam | YopH PTP inh | others
O=C(C1CCCN1S(=O)(=O)c1cccc2nsnc12)N1CCCCC1 (stereo not given) | . | -2% | 3.0 | 2 | .
COc1cccc(CN2CC(C(=O)N(C)CCCC3CCCC3)CCC2=O)c1 (stereo not given) | . | . | 1.2 | 2 | .
CCCCNc1nc(Nc2ccc(C)c(Cl)c2)c2cnn(C)c2n1 | . | . | 0.1 | 13 | .
COC(=O)C1=C(c2cccc(OC)c2OC)C[C@@H]2CC[C@H]1N2C(=O)NCc1cccc2ccccc12 | . | -1% | 5.5 | 2 | .
Cc1cc(C)cc(OC(C)c2ccnc3nc(/N=C/N(C)C)nn23)c1 (stereo not given) | -6 | 21% | 2.0 | 0 | -20
CCOc1cc(N2CCOCC2)c(OCC)cc1NC(=O)COC(=O)[C@@H]1CCCN1S(=O)(=O)c1ccccc1F | -1 | 1% | -4.0 | 86 | .
O=C(O)c1ccc(N2CCc3ccccc32)c([N+](=O)[O-])c1 | . | . | -0.1 | -4 | .
Cc1ccc(NC(=O)CS(=O)CC(=O)N(c2ccccc2F)C(C)C(=O)NC2CCCC2)cc1 (stereo not given) | . | . | 0.2 | -2 | .
C#CC(C)(CC)NC(=O)Cn1nnc(-c2ccc(S(C)(=O)=O)cc2)n1 (stereo not given) | 4 | 5% | 3.1 | -9 | -27
COc1ccc([C@H]2/C=C\CN(Cc3ccc(N(C)C)cc3)[C@@H](C)C(=O)N2Cc2ccc(F)cc2)cc1 | . | 19% | 1.4 | -7 | .
Cc1nn(C)c(C(=O)Nc2ccn(Cc3ccccc3F)n2)c1[N+](=O)[O-] | 2 | -2% | -5.4 | -6 | -7
Cc1cccc(C)c1OCC(O)CN1CCC(CN2C(=O)c3cccc4cccc(c34)C2=O)CC1 (stereo not given) | -40 | ? | 2.2 | 99 | 1
CNc1ccccc1-c1nc2ccccc2n(C)c1=O | 1 | 0% | . | -6 | -24
CCOc1ccc(-n2c(SCC(=O)Nc3ccc(OC)cc3)nc3sc4c(c3c2=O)CCN(C)C4)cc1 | . | . | 11 | -1 | .
CCN1C(=O)/C(=C2\C=Cc3ccccc3N2CC)SC1=S | 1 | 9% | 2.1 | 32 | -43
Cc1cc(C)nc(NC(=O)/C=C/c2ccc(Cl)cc2Cl)c1 | -10 | . | -0.3 | -13 | -20
O=S(=O)(NCC(c1ccco1)N1CCOCC1)c1ccc(Cl)cc1 (stereo not given) | 13 | -9% | -1.5 | -7 | -18
COc1cc(CN2CCC(N3CCC(C(=O)N4CCCC4)CC3)CC2)cc2c1OCO2 | 12 | 1% | -3.1 | 1 | .
COc1ccc2cc(C(=O)N/N=C/c3cc(OC)c(OC)c(OC)c3)[nH]c2c1 | . | . | -1.6 | -3 | .
COc1ccc(-c2ccc3oc(-c4ccc(OC)cc4)c(C#CCCO)c3c2)cc1 | . | -6% | 0.9 | -6 | .
O=Cc1cn(CC(=O)N2CCCc3ccccc32)c2ccccc12 | 10 | -5% | 0.4 | -8 | -4
CCOc1ccc(CC(=O)Nc2sc(Cc3ccccc3)cc2C(N)=O)cc1OCC | -3 | 2% | 0.7 | -3 | -21
O=C(Cc1ccccc1)N1CCN(c2ccccc2F)CC1 | . | . | 0.0 | 1 | .
CC(C)CC(=O)N1CCN(S(C)(=O)=O)CC1 | 4 | -15% | -0.7 | -11 | -7
CCOC(=O)C1Sc2ccccc2NC1=O (stereo not given) | 14 | 5% | -5.3 | -1 | .
Nc1cc(Br)c(N)c(Br)c1 | -5 | -8% | . | -17 | -28
O=C1OCCC1Sc1nc2ccccc2s1 (stereo not given) | 10 | 7% | -0.1 | -2 | -29
COc1ccccc1/C=N/NC(=O)c1nnn(-c2nonc2N)c1CN(C)c1ccccc1 | . | . | 2.3 | 1 | .
CCC(=O)NC(Nc1c(C)n(C)n(-c2ccccc2)c1=O)C(Cl)(Cl)Cl (stereo not given) | 1 | 1% | -2.1 | 1 | .
O=C(NCC1CCCO1)c1cc2c([nH]c3ccccc32)c(-c2cccc(Cl)c2)n1 (stereo not given) | . | . | -0.3 | 1 | .
Cn1c(=O)c(C(=O)CN2CC(=O)Nc3ccccc32)c(N)n(Cc2ccccc2)c1=O | 19 | -13% | 4.8 | -4 | .
O=P(O)(C(O)c1ccccc1)C(O)c1ccccc1 (stereo not given) | . | . | -4.1 | -7 | .
Cc1cc(C=C2C(=O)N(C)C(=S)N(C)C2=O)c(C)n1-c1ccncc1 | . | -8% | 0.8 | -2 | .
CC(C)CN(C(=O)COc1cccc(-n2cnnn2)c1)C1CCS(=O)(=O)C1 (stereo not given) | . | . | 1.0 | -17 | .
CC1=C(C(=O)OCc2ccccc2)C(c2ccc3ccccc3c2)NC(=O)N1CCCCCC(=O)O (stereo not given) | 23 | -7% | 12 | -9 | -32
Brc1ccc(OCCOc2cccc3cccnc23)cc1 | 3 | 4% | 2.2 | 1 | -29
CCN(C(=O)CN1CCN(c2ccc(OC)cc2)CC1)c1c(N)n(Cc2ccccc2)c(=O)[nH]c1=O | -3 | -4% | 0.4 | -8 | -13
COC(=O)CC1C(=O)NCCN1C(=O)CSc1nnc(Nc2ccc(C)cc2)s1 (stereo not given) | 1 | -8% | -0.6 | -5 | -29
Cc1ccccc1NC(=O)Cn1c(=O)n(Cc2ccccc2)c(=O)c2c(C)c(C)sc21 | 2 | 2% | -0.4 | 3 | 3
CCOc1cc(/C=N/NC(N)=O)cc(Br)c1OCc1ccccc1F | -3 | 11% | -1.0 | 11 | -10
COc1ccc(-n2c(Cc3cccn3C)nnc2SCC(=O)NC2CCCCC2)cc1 | -1 | 1% | 1.0 | -7 | -15
Cc1ccccc1-c1noc(-c2ccccc2C(=O)NCC2CCCO2)n1 (stereo not given) | . | 6% | 0.3 | -4 | .
Cc1cccc(/C=C2/Sc3ccc(C(=O)NCCCN4CCOCC4)cc3NC2=O)c1 | . | . | -2.8 | 74 | .
Oc1ccc(Nc2nc(-c3ccccc3)nc3ccccc23)cc1 | . | . | -3.4 | 16 | .
COc1ccccc1CCC(=O)OCC(=O)NC1CCCCC1 | . | . | 0.2 | -3 | .

Three compounds picked at random from the list so far:
SMILES | Arbovirus anti | Mtb growth | RecA intein inh | Mtb betalactam | YopH PTP inh | others
CC(C)CN(C(=O)COc1cccc(-n2cnnn2)c1)C1CCS(=O)(=O)C1 (stereo not given) | . | . | 1.0 | -17 | .
CCOc1cc(/C=N/NC(N)=O)cc(Br)c1OCc1ccccc1F | -3 | 11% | -1.0 | 11 | -10
Cc1ccccc1-c1noc(-c2ccccc2C(=O)NCC2CCCO2)n1 (stereo not given) | . | 6% | 0.3 | -4 | .

(more compounds)
SMILES | Arbovirus anti | Mtb growth | RecA intein inh | Mtb betalactam | YopH PTP inh | others
Cc1cccc(OCCNC(=O)CSc2ccc(C(F)(F)F)cc2[N+](=O)[O-])c1 | -5 | -3% | 0.4 | -2 | -33
Cc1cc(C)c2nc(-c3ccccn3)cc(C(=O)Nc3ccc(S(=O)(=O)Nc4onc(C)c4C)cc3)c2c1 | -2 | 4% | 6.3 | 5 | .
CC1(C)CC(=O)C2=C(C1)NC(=O)CC2c1ccc(N(CCC#N)CCC#N)cc1 (stereo not given) | 12 | -5% | . | 4 | -19 | Arbovirus anti repeat=-1
CCCc1cc(=O)oc2cc(C)c(CN3CCCC3)c(O)c12 | 4 | . | -0.7 | 30 | -52
CCOC(=O)C1(Cc2cccc(Cl)c2)CCCN(C(=O)CCOC)C1 (stereo not given) | 1 | 5% | -0.1 | -5 | .
COc1ccc(CN2C(=O)c3ccccc3C2=O)cc1C(=O)Nc1ccccc1N1CCOCC1 | 1 | 5% | 5.5 | 5 | .
CCCCn1nc2cc(C(=O)NC3CCc4ccccc43)ccc2c1OCC (stereo not given) | -5 | 10% | 5.7 | 0 | -25
COc1ccc(-c2ccc(NC(=O)c3ccc(Br)o3)cc2)nn1 | . | . | 0.5 | -4 | .
O=C1N=C(N2CCCCC2)S/C1=C\c1ccc(Br)cc1 | . | . | -0.6 | 70 | .
COc1ccc(CCNC(=O)C(=O)NCCOc2ccccc2Cl)cc1OC | 0 | 7% | -0.6 | -5 | 1
CC(NS(=O)(=O)c1ccccc1)C(=O)Nc1ccc(S(N)(=O)=O)cc1 (stereo not given) | -1 | -14% | . | 3 | -26
CC(=O)c1c[nH]c(C(=O)NCC2CCCO2)c1 (stereo not given) | -2 | 0% | 5.7 | -3 | -30
COC(=O)c1c(C)[nH]c(C(=O)CC#N)c1C | 8 | -4% | 1.6 | 1 | .
CC(=O)Nc1cccc(NC(=O)CSc2ccc(-c3cccnc3)nn2)c1 | 10 | -3% | 0.6 | 3 | .
Cc1ccc(NC(=O)Cn2nc(-c3ccccc3)nc2-c2ccccc2)c(C)c1 | -16 | 5% | -2.9 | 1 | -44
CC(C)NC(=O)C(C)N1CCN(S(=O)(=O)c2ccc3ccccc3c2)CC1 (stereo not given) | . | . | 0.1 | 1 | .
O=S(=O)(Cc1cc(Sc2ccccc2)nc(-c2ccccc2)n1)c1ccccc1 | -1 | 0% | -0.8 | 54 | 8
CCCNCc1nnc(-c2ccccc2Cl)o1 | 0 | -8% | . | -8 | 0
C=CCOc1ccc(/C(O)=C2/C(=O)C(=O)N(CCCn3ccnc3)C2c2ccco2)cc1 (stereo not given) | 2 | -10% | 1.7 | 11 | .
COc1cccc(N2CC(NC(=O)c3cccc4ccccc34)CC2=O)c1 (stereo not given) | . | . | 0.7 | 6 | .
CCC1(C)N(O)C(C)(C)C(c2ccc(F)cc2)=[N+]1[O-] (stereo not given) | 3 | -4% | -5.7 | 2 | -19
CCN(CC)S(=O)(=O)c1ccc(NS(=O)(=O)c2ccc(O)c([N+](=O)[O-])c2)cc1 | -5 | -3% | -1.8 | -3 | -32
C/C(=N\NC(=O)c1cc(C)nc2ccccc12)c1cccc(Cl)c1 | . | . | -3.2 | -12 | .
Cc1nn(C)cc1S(=O)(=O)N1CCN(Cc2ccccc2Cl)CC1 | 1 | 5% | 1.6 | -17 | .
CCOc1ccc(-c2cccc(NS(=O)(=O)c3ccccc3[N+](=O)[O-])c2)nn1 | . | . | 1.9 | -6 | .
O=c1[nH]c(C(F)(F)F)nc2c1nnn2Cc1ccccc1F | 1 | -1% | -2.8 | 5 | -24
CCN1CCN(CC(=O)c2c[nH]c3ccccc23)CC1 | 4 | -8% | -0.3 | 5 | -34
COc1ccc([N+](=O)[O-])cc1Nc1c2ccccc2nc2ccccc12 | . | . | 3.7 | -24 | .
COC(=O)c1sc(NC(=O)c2c(C)noc2C)nc1C | . | . | 1.6 | -19 | .
CC(=O)Nc1ccc(S(=O)(=O)Nc2cc(C)ccn2)cc1 | 4 | -11% | 2.3 | -11 | .
COc1c(C(C)C)oc2cc3oc(=O)ccc3cc12 | -11 | 3% | -1.7 | 10 | .
CCCCNC(=O)C1CCC(CNc2c(N3CCC(C)CC3)c(=O)c2=O)CC1 (stereo not given) | . | -7% | 0.7 | -2 | .
Brc1ccc2[nH]c3nc(SCCN4CCOCC4)nnc3c2c1 | 13 | . | -0.6 | -8&-4 | -2

Compounds above with a thiophene ring, fused or not (three):
SMILES | Arbovirus anti | Mtb growth | RecA intein inh | Mtb betalactam | YopH PTP inh | others
CCOc1ccc(-n2c(SCC(=O)Nc3ccc(OC)cc3)nc3sc4c(c3c2=O)CCN(C)C4)cc1 | . | . | 11 | -1 | .
CCOc1ccc(CC(=O)Nc2sc(Cc3ccccc3)cc2C(N)=O)cc1OCC | -3 | 2% | 0.7 | -3 | -21
Cc1ccccc1NC(=O)Cn1c(=O)n(Cc2ccccc2)c(=O)c2c(C)c(C)sc21 | 2 | 2% | -0.4 | 3 | 3

Only part of the results is shown; rates above refer to the full screens.
